Screening data: PubChem, several laboratories
MT1-MMP act inh = blocks activation of human MT1-MMP; AID 651647; 360,000 compounds, 0.061% hits; GFP/RFP ratio change, % at 20 µM; HT1080 RFP-PRO-GFP cells, GFP/RFP ratio fluorescence, overnight; percent of plate control window, DMSO zero;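 active = GFP/RFP ratio change of at least 30% with cell ATP level not reduced by more than half and red fluorescence within 50% of control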; note: strong numbers were not always called active
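Material: RFP-PRO-GFP reporter HT1080 cells. Dosing: single-point 20 µM compound, 1% DMSO. Controls: DMSO and RFP-L50D-GFP cell wells. Timing: cells overnight before dosing, compound overnight, 37 °C, 5% CO2. Measure: GFP/RFP fluorescence ratio.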
Rce1 inh = yeast Ras-converting enzyme inhibition. Q03530. yeast membranes, quenched prenylated peptide cleavage fluorescence. calls only. 290,000 compounds, 0.27% hits. AID 2563;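 active = fall in fluorescence gain of 50% or more versus controls, with final raw signal at or below 3038400; inconclusive = same 50% fall but final raw signal above 3038400; inactive = fall in fluorescence gain under 50%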;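 note: plate controls were neutral control wells for no effect and wells lacking membranes for full effect; tested at 10 µM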
Target sequence (Q03530 whole entry, looked up): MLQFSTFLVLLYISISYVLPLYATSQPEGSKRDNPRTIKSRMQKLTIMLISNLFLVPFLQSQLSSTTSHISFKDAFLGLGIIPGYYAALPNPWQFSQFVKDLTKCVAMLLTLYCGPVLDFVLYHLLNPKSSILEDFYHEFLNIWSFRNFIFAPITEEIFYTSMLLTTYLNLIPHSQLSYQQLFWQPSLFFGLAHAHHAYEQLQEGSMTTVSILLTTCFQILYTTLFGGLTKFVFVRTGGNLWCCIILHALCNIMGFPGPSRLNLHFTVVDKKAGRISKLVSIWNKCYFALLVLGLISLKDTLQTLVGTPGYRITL
CSC inhib = cancer stem cell inhibition | 300,000 compounds, 1.1% hits | cancer stem cell-like cells viability, luminescence | AID 2717 | inhibition, % at 7.5 µM;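 active = mean at 75% or more and at least half the replicates too; inconclusive = mean and replicates disagree; tested in HMLE shEcad cells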;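 note: 0% = median of negative and 100% = median of positive control wells; the first replicate is given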
HIV Env fusion = inhibitors of HIV Env-mediated cell fusion. HeLa-JRFL Env/CEM21 cell fusion, luciferase. 360,000 compounds, 1.1% hits. inhibition, % at 12.3 µM. AID 651610;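 active = mean replicate inhibition score of at least 50 and every replicate individually at or above 50; inconclusive = only one of the two criteria met; inactive = mean below 50 and not all replicates reaching 50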;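 note: 0% = plate neutral controls and 100% = maraviroc near 300 nM; one replicate is shown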
Yeast UUG start = alters start codon recognition fidelity in yeast; AID 602363; 350,000 compounds, 0.13% hits; S. cerevisiae UUG-firefly luciferase reporter, luminescence/redox ratio; activity score, % at 18.7 µM;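 active = replicate mean at a twofold rise or more, about +100% in these data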;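 note: firefly luciferase made from a UUG start codon reports start codon fidelity; reporter light over untreated wells divided by growth signal over untreated wells; some hits fall short of that in this replicate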
PABP FP inh = blocks human PABP binding to poly(A) RNA | inhibition, % at 35 µM | 290,000 compounds, 1% hits | AID 2014 | fluorescence polarization;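 active = 50% or more with normal probe brightness, or confirmed in later tests; inconclusive = above 50% with abnormal brightness, or retests that disagree; inactive = below 50% or failed in later tests; about a fifth of its hits are not listed in these tables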;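 note: calls also rest on retests at 20 µM and on dose response follow-up; controls were probe without protein and protein plus probe with vehicle; some compounds called inactive have numbers as strong as hits; many hits fall short of the cut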
Target sequence (P11940 whole entry, looked up): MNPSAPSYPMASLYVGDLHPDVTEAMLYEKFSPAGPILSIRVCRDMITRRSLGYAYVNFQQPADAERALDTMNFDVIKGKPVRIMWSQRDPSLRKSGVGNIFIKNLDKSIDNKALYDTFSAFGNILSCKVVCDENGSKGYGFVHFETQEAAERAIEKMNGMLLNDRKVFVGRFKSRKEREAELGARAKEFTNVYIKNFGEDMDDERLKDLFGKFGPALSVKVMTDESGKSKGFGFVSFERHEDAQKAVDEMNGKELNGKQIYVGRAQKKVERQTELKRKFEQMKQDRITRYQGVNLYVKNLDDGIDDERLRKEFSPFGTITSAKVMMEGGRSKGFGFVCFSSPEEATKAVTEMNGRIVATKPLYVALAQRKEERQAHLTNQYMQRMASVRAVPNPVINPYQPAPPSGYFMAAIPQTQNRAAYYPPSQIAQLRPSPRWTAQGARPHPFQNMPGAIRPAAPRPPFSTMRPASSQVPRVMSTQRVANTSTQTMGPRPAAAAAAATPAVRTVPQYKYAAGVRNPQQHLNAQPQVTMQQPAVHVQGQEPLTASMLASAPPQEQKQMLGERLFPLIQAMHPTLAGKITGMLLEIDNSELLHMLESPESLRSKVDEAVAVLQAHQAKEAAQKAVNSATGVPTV
eIF4H inh = inhibitors of RNA binding by human eIF4H. AID 2012. inhibition, % at 35 µM. Q15056. eIF4H fluorescence polarization binding assay. 290,000 compounds, 0.94% hits;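 active = 50% or more with normal probe brightness, or confirmed in later tests; inconclusive = above 50% with abnormal brightness, or retests that disagree; inactive = below 50% or failed in later tests; about a fifth of its hits are not listed in these tables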;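 note: calls also rest on retests at 20 µM and on dose response follow-up; 0% = protein and probe with vehicle and 100% = probe without protein; strong numbers were not always called active; many hits fall short of the cut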
eIF4H inh retest = further read-out of eIF4H inh, marked with its call; inhibition, %; compound at 20 µM; confirmation average;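 mean of two retest wells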
PABP FP inh retest = further read-out of PABP FP inh, marked with its call; inhibition, %; compound at 20 µM; confirmation repeats;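 mean of two retest wells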
MT1-MMP act inh RFP = also measured in MT1-MMP act inh; calls as there; RFP signal change, %; measured here: RFP expression control read;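 0 = vehicle wells; hits needed this value within 50% of zero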
* hit, by the source's call; i = inactive; u = inconclusive; x = not tested or not shown; + = active, no number; & = joins results of further samples.

SMILES	MT1-MMP act inh	MT1-MMP act inh RFP	Rce1 inh	CSC inhib	HIV Env fusion	Yeast UUG start	PABP FP inh	eIF4H inh	others
CCN1C(=O)[C@@H]2C(C(=O)c3cnccn3)=NN[C@@H]2C1=O	0	2	i	2	-7	-6	12	8
C(#Cc1ccc(C#CCN2CCOCC2)cc1)CN1CCOCC1	3	-2	i	-2	-10	-10	3	2
Cc1nnsc1C(=O)NC1CCCc2c1cnn2-c1ccccc1F (stereo not given)	10	-32	i	-20	47	-10	4	-2
CC(C)CN(CC(C)C)C(=O)c1cccc(S(=O)(=O)N2CCc3ccccc32)c1	-6	-18	i	-13	21	-13	-8	-5
O=C1CC(C(=O)Nc2ccc(Cl)cc2)S/C(=N\N=C\c2ccco2)N1 (stereo not given)	8	4	i	x	5	-10	-4	-10
COc1ccc(CC2(CO)CCN(S(=O)(=O)c3c(C)nn(C)c3C)CC2)cc1	3	-1	i	7	-11	x	-2	4
CC(=O)Nc1ccccc1OCC(=O)NCC(F)(F)F	-1	3	i	7	13	x	-5	-4
OCC[C@H]1C[C@@H](O)[C@H](O)[C@@]2(Cc3ccccc3CCO2)O1	1	4	x	-10	-25	-13	x	x
CCn1c(NC(=O)C(C)C)c(-c2ccccc2)c(=O)c2ccccc21	7	-4	i	-1	9	8	-6	-10
Cc1cccc(OCC(=O)N2CCN(C(=O)c3cccs3)CC2)c1	3	6	i	-6	x	-7	6	3
COC(=O)C1=C(C)NC(C)=C(C(=O)OC)C1C(=O)OCc1nnc(-c2ccccc2Cl)o1	-1	1	x	x	-252	1	x	x
CCOc1nsc(OCC)n1	-1	1	i	6	-17	-19	4	6
COc1ccc(/C=C/C(=O)OCC(=O)NC2CCCC2)cc1OC	1	0	x	-8	-15	-2	x	x
CCOC(=O)c1ccc(NC(=S)N2CCCC(C(=O)N3CCCC3)C2)cc1 (stereo not given)	-1	2	i	-10	-4	-17	-5	0
Nc1ccc(C(=O)OCc2ccncc2)cc1[N+](=O)[O-]	2	1	i	-13	-6	x	14	-12
O=C(Cn1cc([N+](=O)[O-])cn1)NCCc1c[nH]c2ccccc12	0	1	i	-6	11	x	14	-1
CC(C)(C)NC(=O)NC(=O)COC(=O)c1ccco1	-1	0	i	4	x	-8	-4	0
O=C(CCc1nnc2n(Cc3ccc(F)cc3)c(=O)c3ccccc3n12)N1CCN(c2ccccn2)CC1	-2	-4	i	-21	-8	2	-3	-4
Cc1cccc(CN2C(=O)N/C(=C/c3cc(C)n(-c4ccccn4)c3C)C2=O)c1	-4	-4	i	-6	x	-17	47	26
COC(=O)N/N=C/c1cc(C)n(-c2ccc(Br)cc2)c1C	-5	-1	i	7	0	7	22	6
Cc1ccc(NC(=S)N2CCC(c3nc4ccccc4s3)CC2)cc1C	2	-1	i	8	x	-23	-8	-10
N#Cc1ccc2ccn(CC(=O)NC3CCCCCC3)c2c1	0	-1	x	x	-38	-10	3	-3
Cc1cc(C(=O)COC(=O)C(C)NC(N)=O)c(C)n1Cc1ccco1 (stereo not given)	-3	1	i	1	0	x	-3	26
CCC(Sc1nc2c(c(=O)n1CC)SC(C)C2)C(=O)OC (stereo not given)	4	5	i	0	-17	-5	-2	-15
CCOC(=O)C1=C(c2ccccc2)NC(N)=NC1c1ccc(OCc2ccc(Cl)cc2)c(OC)c1 (stereo not given)	-11	-15	i	76*	36	x	-23	-6
COc1ccc(OC)c(/C=C/c2c([N+](=O)[O-])c(=O)n(C)c(=O)n2C)c1	-4	-6	i	23	15	x	5	-5
COc1cc2cc(C(c3nnnn3C3CCCC3)N3CCc4ccccc43)c(=O)[nH]c2cc1OC (stereo not given)	0	-8	i	11	x	x	7	5
O=C(Cn1ccc(=O)[nH]c1=O)c1ccc([N+](=O)[O-])o1	1	3	x	x	7	-2	x	x
CCC(C)N(CC(=O)NCc1ccc(OC)cc1)C(=O)c1csnn1 (stereo not given)	-8	5	i	3	-39	-13	-9	-4
O=S(=O)(NCc1ccco1)c1cccc(S(=O)(=O)N2CCOCC2)c1	-4	-1	i	-6	-53	57	2	8
COc1ccccc1C(CNC(=O)c1ccc(NS(=O)(=O)c2ccc(F)c(C)c2)cc1)N1CCCC1 (stereo not given)	-7	-1	i	x	-15	-2	x	x
O=C(N/N=C/c1ccccn1)c1cc(-c2ccc(Cl)cc2)nc2ccccc12	1	-7	i	32	23	-16	18	17
COc1cccc(OCC(=O)N(Cc2nc(-c3ccc(Cl)cc3)no2)C(C)C)c1	1	0	i	7	11	-1	-2	-12
COc1ccc(S(=O)(=O)N(CC(=O)N2CCCC2)Cc2ccccc2)cc1	-2	1	+	-12	x	3	13	-4
O=C(OCc1nnc(-c2ccccc2Br)o1)c1ccco1	-4	7	x	-12	x	-7	x	x
COc1ccc(CC(=O)Nc2nc(-c3cccc([N+](=O)[O-])c3)cs2)cc1	3	3	i	21	-15	x	2	2
O=C(NCCCN1CCOCC1)c1cc(S(=O)(=O)N2CCCCC2)ccc1Cl	-3	3	x	x	-4	-15	x	x
CCc1nnc(NS(=O)(=O)c2ccc(NC(=O)c3ccc(Br)cc3)cc2)s1	2	1	i	-10	7	-10	11	9
Cc1ccccc1S(=O)(=O)N(C)C[C@@H]1OCc2cnnn2CCCC(=O)N([C@@H](C)CO)C[C@H]1C	0	4	x	x	-25	-7&3	x	x
COc1ccccc1NC(=O)CN1C(=O)COc2ccc(S(=O)(=O)N3CCC(C)CC3)cc21	-1	0	i	-7	-6	x	x	x
NS(=O)(=O)c1ccc(CCNC(c2ccccc2)c2ccccc2)cc1	-4	-1	i	x	3	-10	-2	5
CC1(C)C2CCC1(C)C(NCC(O)COc1ccc(C#N)cc1)C2 (stereo not given)	3	2	i	1	12	-10	13	0
CCc1ccc(S(=O)(=O)NCc2cn3ccccc3n2)s1	3	0	i	1	x	-15	2	6
CC(C)C(=O)N1CCCC1(C)C(=O)Nc1ccc(F)cc1 (stereo not given)	-5	5	x	x	1	-19	x	x
COc1cc(CC(=O)OCC(=O)Nc2ccc([N+](=O)[O-])cc2)cc(OC)c1OC	-4	-4	i	-12	-7	x	-7	-7
COc1ccc(C(C)=O)cc1CSc1nnc(SCc2cc(C(C)=O)ccc2OC)s1	x	x	i	12	1	x	-4	-6
COc1ccccc1/C=C/C=N\N1CCN(Cc2ccccc2Cl)CC1	2	-4	i	48	-6	-16	u	1
COc1ccc(OCCSc2nnc(CCNC(=O)c3ccc(OC)cc3)n2C)cc1	11	0	i	-11	16	-5	-4	6
COc1ccc(S(=O)(=O)N2CCOC2CNC(=O)C(=O)NCc2ccc3c(c2)OCO3)cc1OC (stereo not given)	-3	-1	i	5	11	11	14	6
NS(=O)(=O)c1cccc(NC(=O)COc2ncnc3c2cnn3-c2ccccc2)c1	-3	-2	i	-11	-31	x	-6	-2

An excerpt from above in order of molar mass, rising:
SMILES	MT1-MMP act inh	MT1-MMP act inh RFP	Rce1 inh	CSC inhib	HIV Env fusion	Yeast UUG start	PABP FP inh	eIF4H inh	others
CC(C)C(=O)N1CCCC1(C)C(=O)Nc1ccc(F)cc1 (stereo not given)	-5	5	x	x	1	-19	x	x
CCc1ccc(S(=O)(=O)NCc2cn3ccccc3n2)s1	3	0	i	1	x	-15	2	6
O=C(OCc1nnc(-c2ccccc2Br)o1)c1ccco1	-4	7	x	-12	x	-7	x	x
NS(=O)(=O)c1ccc(CCNC(c2ccccc2)c2ccccc2)cc1	-4	-1	i	x	3	-10	-2	5
COc1ccccc1/C=C/C=N\N1CCN(Cc2ccccc2Cl)CC1	2	-4	i	48	-6	-16	u	1
COc1ccc(S(=O)(=O)N(CC(=O)N2CCCC2)Cc2ccccc2)cc1	-2	1	+	-12	x	3	13	-4
COc1cc(CC(=O)OCC(=O)Nc2ccc([N+](=O)[O-])cc2)cc(OC)c1OC	-4	-4	i	-12	-7	x	-7	-7
COc1cccc(OCC(=O)N(Cc2nc(-c3ccc(Cl)cc3)no2)C(C)C)c1	1	0	i	7	11	-1	-2	-12
NS(=O)(=O)c1cccc(NC(=O)COc2ncnc3c2cnn3-c2ccccc2)c1	-3	-2	i	-11	-31	x	-6	-2
O=C(NCCCN1CCOCC1)c1cc(S(=O)(=O)N2CCCCC2)ccc1Cl	-3	3	x	x	-4	-15	x	x
COc1ccc(OCCSc2nnc(CCNC(=O)c3ccc(OC)cc3)n2C)cc1	11	0	i	-11	16	-5	-4	6
CCc1nnc(NS(=O)(=O)c2ccc(NC(=O)c3ccc(Br)cc3)cc2)s1	2	1	i	-10	7	-10	11	9
COc1ccc(C(C)=O)cc1CSc1nnc(SCc2cc(C(C)=O)ccc2OC)s1	x	x	i	12	1	x	-4	-6
Cc1ccccc1S(=O)(=O)N(C)C[C@@H]1OCc2cnnn2CCCC(=O)N([C@@H](C)CO)C[C@H]1C	0	4	x	x	-25	-7&3	x	x
COc1ccc(S(=O)(=O)N2CCOC2CNC(=O)C(=O)NCc2ccc3c(c2)OCO3)cc1OC (stereo not given)	-3	-1	i	5	11	11	14	6

Later entries:
SMILES	MT1-MMP act inh	MT1-MMP act inh RFP	Rce1 inh	CSC inhib	HIV Env fusion	Yeast UUG start	PABP FP inh	eIF4H inh	others
Cc1ccc(NC(=O)CCN2C(=O)c3ccncc3C2=O)cc1	-11	-2	i	-8	-39	-21	10	-5
O=C(NCc1ccc(F)cc1)c1nc(-c2cccs2)no1	9	9	i	7	-8	-34	-17	53	eIF4H inh retest=10;PABP FP inh retest=33
CC/C(=N\NC(=O)c1ccc2c(c1)OCO2)C12CC3CC(CC(C3)C1)C2	-3	2	i	12	-91	-10	-7	-4
Cc1cc(NS(=O)(=O)c2ccc(NC(=O)c3cc(-c4ccccc4Cl)nc4ccccc34)cc2)no1	4	-1	i	8	0	x	-3	7
Cc1ccc(S(=O)(=O)NCc2ccccc2)cc1C(=O)N1CCCCC1	-2	-3	i	14	18	-8	8	5
COC(=O)NN1C(=O)C(c2ccccc2)=C(c2ccc(Cl)cc2)C1=O	3	8	i	-5	-3	x	x	x
